Assay outcomes from PubChem.
GIV-Gai inh: inhibitors of GIV GBA-motif binding to rat Galpha-i3 | Galpha-i3/FITC-GIV peptide fluorescence polarization, 90 min; active compounds read low; scaled: aluminum fluoride 0%, vehicle 100% | percent of control (FP), % (concentration not given with the values) | 210,000 compounds, 0.42% hits;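 active means replicate mean at 85% of control or lower, very high polarization wells dropped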;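 further: wells of about 15 µL received 100 nL stock; the first replicate is given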
Target sequence (P08753 whole entry, looked up): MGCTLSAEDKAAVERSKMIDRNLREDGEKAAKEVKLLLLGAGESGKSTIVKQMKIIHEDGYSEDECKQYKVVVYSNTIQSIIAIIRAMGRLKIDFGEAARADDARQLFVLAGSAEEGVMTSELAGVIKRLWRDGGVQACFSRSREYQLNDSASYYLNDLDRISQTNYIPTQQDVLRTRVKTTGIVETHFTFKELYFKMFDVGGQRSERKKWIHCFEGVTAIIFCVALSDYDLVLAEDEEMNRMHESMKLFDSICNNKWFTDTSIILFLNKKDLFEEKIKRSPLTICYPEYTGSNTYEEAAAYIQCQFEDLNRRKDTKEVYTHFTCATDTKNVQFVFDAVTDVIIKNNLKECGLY
HCMV NEC inh: cytomegalovirus nuclear egress complex inhibition. HTRF UL50-UL53 interaction, normalized percent inhibition. inhibition, % (test concentration not listed). 190,000 compounds, 0.15% hits. AID 1918969;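 active means both replicates at 50% or more, plus weaker picks with an unusually low signal ratio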;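 further: stock transfer was 100 nL into about 20 µL; 0% = negative control wells and 100% = wells with untagged competitor protein; inactives centre near -12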
Sa growth 42C: blocks Staphylococcus aureus growth; 170,000 compounds, 0.53% hits; relative growth, % (no concentration beside the values); S. aureus RN4220 growth, OD600, 20 h, 42 °C; active compounds read low;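 active means growth at 42 °C up to 50% and 20 or more points under that at 30 °C, or under 10% at both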;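 further: 300 nL library stock went into each well; scaled to the means of positive and negative controls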
Sa growth 42C second temp: further read-out of Sa growth 42C, marked with its call; relative growth, %; measured here: growth at 30 °C;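 optical density after 20 h as mean of two plates; 100% = untreated growth and lower means inhibition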
The depositor's hits bear a star; / = no result given; & = joins results of further samples. The order is random. About 0.83% of those tested had a hit in this group.

SMILES	GIV-Gai inh	HCMV NEC inh	Sa growth 42C	Sa growth 42C second temp
COc1ccc(-c2cc(=Nc3ccc(OC)c(OC)c3)c3ccccc3o2)cc1	104	/	89	84
O=C(O)CSCC(=O)N1CCn2c3c(c4cc(C5CCCCC5)ccc42)CCCC31 (stereo not given)	98	/	87	73
CCOc1ccccc1CNC(=O)CCc1cn(CC)c2ccccc12	101	/	130	92
Cc1cc(C)c2c(n1)sc1c(N3CCN(c4ccccc4)CC3)ncnc12	99&98	-4&-15	101	92
COc1ccc(NS(=O)(=O)c2cccc3cccnc23)c(OC)c1	97	-30	94	78
CCn1cc(C(=O)NCCC(C)C)c2cc(OC)c(OC)cc2c1=O	100	/	109	90
CCN(c1ccc(Cl)cc1)S(=O)(=O)c1nnc(NC(=O)c2ccco2)s1	102	-14	58	19
O=C1/C(=C/c2ccccc2F)Cc2ccccc21	102	/	119	81
COc1nc(C)cc(C(F)(F)F)c1C#N	108	-7	110	79
CC(=O)Oc1ccc2c(c1)NC1(OC(C)=O)C(=O)c3ccccc3C21OC(C)=O (stereo not given)	/	-10	92	89
O=c1c2ccccc2n2nncc2n1Cc1ccccc1F	102	-21	112	79
N#C/C(=C\c1ccc(OCc2ccc(Cl)cc2Cl)cc1)c1nc2ccccc2[nH]1	113	6	92	76
COc1cccc(NC(=O)CSc2ncccn2)c1	102	-2	102	100
Cc1cc2c(c(=O)o1)C(c1ccccc1OCc1ccccc1Cl)C(C#N)=C(N)O2 (stereo not given)	99	-7	/	/
CCOC(=O)c1cc(S(=O)(=O)N2CCN(c3ccccc3OC)CC2)[nH]n1	99	/	88	99
COC(=O)c1ccc(CNC(=O)C(NC(C)=O)C(C)C)cc1 (stereo not given)	/	-17	83	98
CCOC(=O)c1c(N)n(-c2ccc(C)c(C)c2)c2nc3ccccc3nc12	103	/	112	95
Cc1nc(Cl)c(Cc2ccccc2)c(N2CCCC2)n1	103	5	85	94
Cc1ccc(Nc2nc(Nc3ccc(C)cc3)nc(N3CCCCC3)n2)cc1	100	/	87	90
COc1cccc(CSc2nc3n(n2)C(c2ccc(C(=O)O)cc2)C(C(=O)Nc2ccccc2)=C(C)N3)c1 (stereo not given)	99	/	122	89
O=C(Nc1ccc(O)c(-c2nc3ccccc3s2)c1)c1cc2cc([N+](=O)[O-])ccc2s1	103	-29	/	/
c1cc2c(c(Nc3c4c(nc5ncnn35)CCC4)c1)CCCC2	103	-14	/	/
Cc1nn(Cc2ccc(F)cc2)c(C)c1NC(=O)c1noc2c1CCc1ccccc1-2	100	15	105	95
CSc1ccc(-c2noc(CSc3ccc(-c4ccccc4F)nn3)n2)cc1	116	19	/	/
COc1cccc(NC(=O)CC2CCCCC2)c1	95	-7	105	95
Next section.
SMILES	GIV-Gai inh	HCMV NEC inh	Sa growth 42C	Sa growth 42C second temp
Cc1ccc2c(c1)N(C(=O)N1CCC(C(=O)NCc3cccc(Br)c3)CC1)CCO2	105	-22	112	84
COc1ccc(N2CCN(CCNC(=O)c3nnc(Cc4c(F)cccc4Cl)o3)CC2)cc1	98	0	103	97
CCN(CC)S(=O)(=O)c1ccc2[nH]c(=O)cc(C(=O)Nc3ccccc3N3CCN(C)CC3)c2c1	/	-1	104	99
CCCc1nn2c(=O)cc(COc3ccc(C)cc3)nc2s1	107	-5	97	81
CN(CC(COc1ccccc1)OC(=O)c1ccc(Cl)cc1)C1=NS(=O)(=O)c2ccccc21 (stereo not given)	/	-10	85	83
O=C(NCc1ccc2c(c1)OCO2)c1ccc2c(c1)ncn2C1CCCC1	107	3	100	89
COc1ccccc1-c1noc(-c2ccc(NCC3CCCO3)c([N+](=O)[O-])c2)n1 (stereo not given)	104	-8	105	88
COc1cc2[nH]c(=O)n(Cc3ccc(C(=O)N4CCN(c5cc(Cl)ccc5C)CC4)cc3)c(=O)c2cc1OC	105	4	105	90
O=C(O/N=C/c1ccc(F)c(Cl)c1)C1CC1	110	-12	108	94
CCOc1ccc(CNC(=O)CC(C)n2nc(C)cc2C)cc1OC (stereo not given)	100	/	84	98
Cc1ccc(NNC(=S)NC2CCCCC2)cc1	/	-14	91	88
CCCCN(CCCC)S(=O)(=O)c1ccc(C(=O)Nc2sc3c(c2C(N)=O)CCN(CC)C3)cc1	102	/	116	84
CC(C)C(=O)NCCc1nc(-c2ccccc2Cl)no1	97	-8	94	79
O=C1NC(=NCc2ccccc2)S/C1=C\c1ccc(Cl)cc1	/	-38	115	87
Cc1ccc(Cl)cc1NC(=O)CSc1nc2c(oc3ccccc32)c(=O)n1C1CCCC1	101	-13	105	95
Cc1nc(-c2ccc(S(=O)(=O)N3CCN(c4cccc(Cl)c4)CC3)cc2)co1	105	/	107	88
CN1C(C(=O)Nc2ccc(F)cc2F)=CC(c2ccc(F)cc2)=NS1(=O)=O	98	/	15	7
O=C(N/N=C/c1cccnc1)C1=NNC(=O)C1CCO (stereo not given)	106	-21	99	95
O=C1c2ccccc2NC2(CCCCC2)N1N=C1CCCCC1	100	4	105	106
COc1cccc(CNCCSc2nnnn2C)c1OCc1ccccc1F	104	-12	87	90
COC(=O)/C=C/c1cn(-c2ccccc2)nc1-c1ccc(F)cc1	/	-33	105	85
O=C(Nc1ccc2ccccc2n1)c1cccs1	102	5	76	50
O=C(Nc1nc(-c2cccs2)cs1)C1CC(=O)N(C2CCCC2)C1 (stereo not given)	/	-57	83	96
Cc1cc(-n2c(C)cc(CNC(C)C(O)c3ccc(O)cc3)c2C)no1 (stereo not given)	/	-12	77	95
C=CCN(C#N)c1nc(N(C)C)nc(N(C)C)n1	102	/	119	87
The results go on.
SMILES	GIV-Gai inh	HCMV NEC inh	Sa growth 42C	Sa growth 42C second temp
CN(C)c1ccc(C(=S)N2CCN(c3cccc(Cl)c3)CC2)cc1	104	-15	98	99
COC(=O)C1=C(C)OC(N)=C(C#N)C1c1ccccc1I (stereo not given)	104	-8	/	/
CC(=O)Nc1nc2c(s1)C(=O)NCC(C)(C)C2	106	-6	/	/
CC(C)CC(N)c1ccccc1 (stereo not given)	/	-13	84	90
O=C(Nc1ccc(Br)cc1F)C1CCCN(S(=O)(=O)N2CCC3(CC2)OCCO3)C1 (stereo not given)	101	-34	91	77
O=C(c1cnc2ccccc2c1Nc1cc(F)ccc1F)N1CCOCC1	99	-26	/	/
COc1ccc(OC(=O)C=C(C)C)cc1	110	-3	101	92
Cc1cccc(C)c1Nc1c(-c2ccccn2)nc2c(C)cccn12	103	-16	84	94
CCOC(=O)N1CCN(c2c(-c3ccccc3)c3cc(Cl)ccc3[nH]c2=O)CC1	94	-4	108	104
COc1cc2c(cc1OC)C(COc1cc(C)cc(C)c1)N(C(=O)COc1ccccc1)CC2 (stereo not given)	109	/	115	83
COc1cccc(CNC(=O)c2cc(Sc3cccc(Cl)c3)nc3ccccc23)c1	102	/	164	102
Cc1cc(N2CCn3c(nc4ccccc43)C2)ccc1NS(C)(=O)=O	103	-20	/	/
CCCN1CCN(CCCNC(=O)c2cc3c(s2)-c2ccccc2S(=O)(=O)C3)CC1	108	/	96	96
Clc1ccc(C2C3=C(Nc4ncnn42)c2ccccc2CCC3)cc1 (stereo not given)	100	-25	/	/
O=C(O)c1cccc(OCc2cn3ccccc3n2)c1	/	-9	85	95
CC1CCCCC1NC(=O)Cn1cnc2ccccc2c1=O (stereo not given)	/	-12	98	101
COc1ccccc1-c1nnc(C2CCN(C(=O)c3cccc(Cl)c3)CC2)o1	104	-16	109	75
N=C1C(c2nc3ccccc3s2)=C(O)CN1c1ccccc1	/	-9	114	94
COc1ccccc1N=C(N)Nc1cccc(C(F)(F)F)c1	/	16	66	91
CC1=C(C(=O)NCc2ccc(Cl)cc2)C2(CCC(C)CC2)OC1=O (stereo not given)	107	-38	106	94
Cc1ccc(S(=O)(=O)CCSc2nc(C)cc(C)c2C#N)cc1	101	-2	89	99
Cc1ccc(NC(=O)NC(Cc2ccccc2)Cc2ccccc2)cc1C	107	-13	/	/
Cc1ccc(S(=O)(=O)N2CCC(C(=O)Nc3cc(C)ccc3C)CC2)cc1	108	-7	107	92
Cc1c[n+]([O-])n(-c2ccc(C(=O)O)cc2)n1	101	/	97	88
Cc1cc(N2CCN(C)CC2)nc2ccc(NC(=O)Nc3ccc4c(c3)OCCO4)cc12	109	9	/	/
Remaining list, next part
SMILES	GIV-Gai inh	HCMV NEC inh	Sa growth 42C	Sa growth 42C second temp
O=C(c1ccc(COc2cccc3ccccc23)cc1)N1CCCCC1	99	/	81	47
O=C1C=CC(=O)N1c1ccc(N2CCOCC2)cc1	103	6	112	78
C/C(N)=C(/C#N)C(=O)CSc1ncccn1	/	-17	70	92
Cc1ccc(C(Nc2nc(C)cc(C)n2)c2c(NC(=O)c3ccccc3)sc(C)c2C)cc1 (stereo not given)	111	-32	/	/
CC(C)(C)C(=O)COC(=O)c1ccc(NS(=O)(=O)c2cccs2)cc1O	/	-13	98	103
CCN(CCO)Cc1cn[nH]c1-c1ccc(C)c(C)c1	/	5	101	98
Nc1ncnc2c1ncn2[C@@H]1O[C@H](CO)[C@@H](O)[C@@H]1O	100	-32&-36&-58	91&92	70&68
COc1ccc(C(=O)O)cc1S(=O)(=O)NCCc1ccccc1	101	-38	97	98
COc1cccc(NC(=O)c2csc3c2CCCCC3)c1	95	0	87	87
O=C1Nc2ccccc2/C1=N\N=C\c1ccccc1	/	-40	40	11
CSc1cccc(NC(=O)COC(=O)c2ccccc2)c1	/	-24	90	97
COc1ccc(NC(=O)CS(=O)(=O)c2c[nH]c3ccccc23)cc1	104	/	104	82
CN1/C(=C\C(=O)CSCc2ccco2)C(C)(C)c2ccccc21	/	-13	81	94
c1ccc(Cn2cc3c(-c4ccccc4)nnc-3c3cc4c(cc32)OCCO4)cc1	105	0	/	/
O=c1ccnc(SCCc2ccccc2)[nH]1	102	-4	106	104
CC(=O)Nc1ccc(OCc2cnc(Cl)s2)cc1	101	-6	/	/
CCS(=O)(=O)N1CCN(C(=O)c2nsc3ccc(C)cc23)CC1	99	-14	/	/
COc1ccc(NC(=O)CN(c2ccc(C)cc2)S(=O)(=O)c2cccs2)cc1	102	7	105	95
CCOC(=O)C1=CNc2ccccc2N=C1N	106	/	93	80
CCOc1ccc(C(C)N)cc1 (stereo not given)	91	-34	88	97
Cc1cccc(N2CCN(C(=O)CCc3nnc4n(C)c(=O)c5ccccc5n34)CC2)c1C	103	-2	106	93
Cc1cccc(N(C)S(=O)(=O)c2ccc3[nH]c4c(c3c2)CCCC4)c1	98	/	104	74
O=C(NC1CCS(=O)(=O)C1)c1cc(-c2cccnc2)nc2ccccc12 (stereo not given)	114	-33	/	/
COc1ccc(-n2c(=O)c3ccc(C(=O)NCc4ccc(C)cc4)cc3n(CC(=O)Nc3cccc(F)c3)c2=O)cc1	103	-12	98	79
COc1ccc(NC(=O)c2nnn(CC(=O)Nc3c(C)cc(C)cc3C)c2N)cc1OC	101	/	88	87
The list continues.
SMILES	GIV-Gai inh	HCMV NEC inh	Sa growth 42C	Sa growth 42C second temp
Cc1ccc(N2CCN(Cc3nnc(-c4ccc5c(c4)OCO5)o3)CC2)c(C)c1	107	-5	117	87
Cc1cc2nn(-c3ccc(F)cc3)nc2cc1NC(=O)c1ccc(OC(C)C)cc1	107	-26	98	94
Cc1ccc(NC(=O)c2ccc(CNS(=O)(=O)c3ccc4c(c3)C(C)(C)C(=O)N4C)cc2)cc1F	107	/	114	98
CCN(C(=O)NS(=O)(=O)c1ccc(C)cc1)C1CCCCC1	/	-8	107	98
Cc1onc(-c2ccccc2)c1C(=O)NC1C(=O)N2[C@@H]1SC(C)(C)[C@@H]2C(=O)O (stereo not given in full)	/	-13	-0.9*	-1.1*
C=CCn1c(SCC(=O)N2CCc3ccccc3C2)nnc1-c1ccccc1OC	95	/	109	77
Cc1ccc(NC(=O)Cn2c(C)cc(C)c(C#N)c2=O)cc1F	101	/	92	89

13 neighbouring compounds already listed, for reference:
SMILES	GIV-Gai inh	HCMV NEC inh	Sa growth 42C	Sa growth 42C second temp
COc1ccc(-c2cc(=Nc3ccc(OC)c(OC)c3)c3ccccc3o2)cc1	104	/	89	84
O=C(O)CSCC(=O)N1CCn2c3c(c4cc(C5CCCCC5)ccc42)CCCC31 (stereo not given)	98	/	87	73
CCOc1ccccc1CNC(=O)CCc1cn(CC)c2ccccc12	101	/	130	92
Cc1cc(C)c2c(n1)sc1c(N3CCN(c4ccccc4)CC3)ncnc12	99&98	-4&-15	101	92
COc1ccc(NS(=O)(=O)c2cccc3cccnc23)c(OC)c1	97	-30	94	78
CCn1cc(C(=O)NCCC(C)C)c2cc(OC)c(OC)cc2c1=O	100	/	109	90
CCN(c1ccc(Cl)cc1)S(=O)(=O)c1nnc(NC(=O)c2ccco2)s1	102	-14	58	19
O=C1/C(=C/c2ccccc2F)Cc2ccccc21	102	/	119	81
COc1nc(C)cc(C(F)(F)F)c1C#N	108	-7	110	79
CC(=O)Oc1ccc2c(c1)NC1(OC(C)=O)C(=O)c3ccccc3C21OC(C)=O (stereo not given)	/	-10	92	89
O=c1c2ccccc2n2nncc2n1Cc1ccccc1F	102	-21	112	79
N#C/C(=C\c1ccc(OCc2ccc(Cl)cc2Cl)cc1)c1nc2ccccc2[nH]1	113	6	92	76
COc1cccc(NC(=O)CSc2ncccn2)c1	102	-2	102	100

Exported with each value named: part of the list above.
> CCN(C(=O)NS(=O)(=O)c1ccc(C)cc1)C1CCCCC1
  GIV-Gai inh = /	HCMV NEC inh = -8	Sa growth 42C = 107	Sa growth 42C second temp = 98
> Cc1onc(-c2ccccc2)c1C(=O)NC1C(=O)N2[C@@H]1SC(C)(C)[C@@H]2C(=O)O (stereo not given in full)
  GIV-Gai inh = /	HCMV NEC inh = -13	Sa growth 42C = -0.9*	Sa growth 42C second temp = -1.1*
